Screening results from PubChem BioAssay.
ClpP mod – qHTS Assay for Activators of ClpP; ATP-dependent Clp protease proteolytic subunit (Bacillus subtilis (strain 168)), P80244; purified B. subtilis ClpP, FRET peptide cleavage, 20 min; Potency, µM (doses to about 57.5 µM), inactives show top-dose activity change, negative = active; actives 1.9% (n = 340,000); active = well fitted falling curve with a large enough effect; inconclusive = small, poorly fitted or top-dose-only effect; inactive = no such curve, though single readings can be large or run the other way; also: potency is read from the fitted curve at half-maximal effect; the source files actives as falling curves though it sought activators and does not explain the sign; nearly all actives have a fitted effect of over 65% in size; many hits overshoot -100%
Target sequence (P80244 whole entry, looked up): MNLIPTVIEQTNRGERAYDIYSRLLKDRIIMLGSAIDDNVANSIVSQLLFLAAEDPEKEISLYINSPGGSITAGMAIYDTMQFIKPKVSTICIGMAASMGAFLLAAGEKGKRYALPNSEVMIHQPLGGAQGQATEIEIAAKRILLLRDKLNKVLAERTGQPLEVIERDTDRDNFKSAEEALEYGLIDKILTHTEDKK
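Purified B. subtilis ClpP, 10 microg/mL final in Tris/HCl pH8 with KCl, BSA, glycerol and Tween-20, cleaved an Abz/nitrotyrosine-quenched decapeptide. Fluorescence (ex 320, em 430) was read at 0 and 20 min at room temperature. Delta was normalized to 5.8 microM ADEP and DMSO/no-enzyme controls.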
Menin MLL FP FL – menin-MLL binding inhibition, fluorescein peptide. FP activity change, % at 61.4 µM. Fluorescence polarization, fluorescein-MLL peptide displacement from menin. AID 1766. 290,000 tested, under 10 active; inconclusive = falling polarisation curve, or a change in total fluorescence; inactive = total fluorescence flat and polarisation flat or rising; no compound was filed as active; the % refers to the polarisation; negative = inhibition;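 also: % of control where 0% means no effect; inhibitors lower the polarisation; unlabelled MLL peptide was the positive control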
D2 PAM – positive allosteric modulators of human D2 dopamine receptor; P14416; DiscoveRx D2 beta-arrestin cells, luminescence, 90 min; 100% = 57 uM dopamine signal; potentiation, % (no concentration beside the values); actives 0.23% (n = 360,000); active = potentiation of 50% or more; inconclusive = 30% to 50%; inactive = 30% or less;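 also: compound concentration not given in the record; tested on top of an EC20 dose of dopamine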
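PathHunter beta-arrestin assay in DiscoveRx D2 cells. Compounds were added with an EC20 of dopamine (50 nM final) for 90 min at 37 deg C. Luminescence was read 1 h after detection reagent, with 57 uM dopamine as the EC100 control.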
gsp antag – gsp mutant antagonism | gsp-mutant cells, cAMP HTRF, 30 min; control for the full effect not named in the record | Potency, µM (top dose mostly 76.9 µM), for the others: at the top dose activity change, negative = inhibition, most hits filed as inhibitors | actives 0.4% (n = 340,000) | AID 624288; active = falling curve of any shape with a large fitted effect; inconclusive = falling curve, mostly with a smaller effect; inactive = flat or rising curve; cell line not stated here;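 also: intracellular cAMP measured with PDE inhibitor Ro 20-1724 present during compound exposure; potency is read from the fitted curve at half-maximal effect; % is scaled to controls: 0 for no effect and ±100 for the full control effect; nearly all actives have a fitted effect of over 65% in size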
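G418-selected cells were plated in DMEM/10% FBS for 16-24 h at 37C, then treated with compounds plus the PDE inhibitor […] (300 uM solution added) for 30 min at 37C. Intracellular cAMP was measured by HTRF after 30 min lysis at room temperature.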
gsp agonist – agonists of gsp mutant (McCune-Albright syndrome); gsp mutant cells, cAMP HTRF, 30 min; control for the full effect not named in the record; actives 0.13% (n = 340,000); Potency, µM (series often up to 76.9 µM), inactives show at the top dose activation (cAMP increase), hits mostly activators; AID 624287; active = well fitted activation curve with a large enough effect; inconclusive = small, poorly fitted or top-dose-only effect, or another doubt; inactive = no such curve, though single readings can be large or run the other way; cell line not stated here;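 also: phosphodiesterase inhibitor Ro 20-1724 added with compounds to block cAMP breakdown; potency is read from the fitted curve at half-maximal effect; nearly all actives have a fitted effect of over 60% in size; about a fifth of the inactives were tested at one dose only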
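Cells in DMEM/10% FBS with G418 were pretreated with compounds in DMSO plus […] (300 uM stock) for 30 min at 37C. cAMP was measured by HTRF (cAMP-d2 plus anti-cAMP antibody-K) after 30 min at room temperature.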
TRPV1 potentiator – enhances activation of the human vanilloid receptor TRPV1; Q8NER1; TRPV1-expressing cells, Fluo-8 calcium influx, capsaicin EC20 potentiation; host cell line not named in the record; control for the full effect not named in the record; potentiation, % at 8.33 µM; actives 0.02% (n = 320,000); AID 540277; active means potentiation above 80%; inconclusive means 30% to 80%; inactive means below 30%; also: 0% is about no effect
Target sequence (Q8NER1 whole entry, looked up): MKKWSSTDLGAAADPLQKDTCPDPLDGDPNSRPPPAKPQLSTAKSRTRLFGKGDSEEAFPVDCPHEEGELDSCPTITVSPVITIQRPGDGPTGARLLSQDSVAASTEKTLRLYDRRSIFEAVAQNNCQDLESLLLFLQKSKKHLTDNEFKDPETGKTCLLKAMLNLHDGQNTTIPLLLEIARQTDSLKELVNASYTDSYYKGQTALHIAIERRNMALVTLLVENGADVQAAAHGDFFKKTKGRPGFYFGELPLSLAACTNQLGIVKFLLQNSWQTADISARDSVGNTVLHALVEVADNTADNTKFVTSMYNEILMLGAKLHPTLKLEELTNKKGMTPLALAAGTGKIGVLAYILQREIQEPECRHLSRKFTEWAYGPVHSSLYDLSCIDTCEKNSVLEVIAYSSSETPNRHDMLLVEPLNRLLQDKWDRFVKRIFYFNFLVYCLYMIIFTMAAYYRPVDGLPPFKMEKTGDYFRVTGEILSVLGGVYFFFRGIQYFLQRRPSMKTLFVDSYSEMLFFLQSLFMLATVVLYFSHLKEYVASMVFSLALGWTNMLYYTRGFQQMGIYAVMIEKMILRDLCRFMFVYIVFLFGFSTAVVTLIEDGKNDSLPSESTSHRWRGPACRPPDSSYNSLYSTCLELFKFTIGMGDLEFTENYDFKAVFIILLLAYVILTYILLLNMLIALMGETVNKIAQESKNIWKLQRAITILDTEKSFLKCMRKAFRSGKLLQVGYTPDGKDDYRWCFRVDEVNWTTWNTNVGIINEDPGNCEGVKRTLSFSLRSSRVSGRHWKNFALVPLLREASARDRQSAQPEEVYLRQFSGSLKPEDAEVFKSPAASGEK
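Cells expressing TRPV1 were dye-loaded with Fluo-8 and read kinetically: 10 s baseline, 3 min after compound (agonist portion), then 2 min after EC20 capsaicin (allosteric enhancer portion). Calcium-bound dye fluorescence at 480/520 nm.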
Sfp PPTase inh – inhibitors of Bacillus subtilis Sfp phosphopantetheinyl transferase; Biochemical Sfp PPTase activity, qHTS; Potency, µM, inactives show max response, negative = inhibition, hits mostly inhibitors; actives 3.5% (n = 310,000); AID 1490; active = well fitted inhibition curve with a large enough effect; inconclusive = small, poorly fitted or top-dose-only effect, or another doubt; inactive = no such curve, though single readings can be large or run the other way;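 also: the enzyme is Sfp with the accession as filed and its product quenches rhodamine fluorescence; potency is read from the fitted curve at half-maximal effect; 0% = enzyme reaction without inhibitor and -100% = no enzyme wells; top concentration of the series not given in the record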
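Fluorescence-quenching assay with 15 nM Sfp, 5 uM rhodamine-CoA and 12.5 uM BHQ-2-labelled ybbR peptide in pH 7.6 Hepes/MgCl2 buffer. Enzyme was pre-incubated with compound for 15 min at room temperature. Rate was taken from the 30-min fluorescence change (525/598 nm).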
* = called active by the depositor; ? = inconclusive; . = not tested or not shown; & = joins results of further samples; [ ] = remark or other dose.

SMILES	ClpP mod	Menin MLL FP FL	D2 PAM	gsp antag	gsp agonist	TRPV1 potentiator	Sfp PPTase inh
Cc1csc(NC(=O)CSc2ncn(-c3ccccc3)n2)n1	1.6%	0.1	3	6%	18%	?	5%
Clc1ccc(-n2nnnc2-c2cnc(-c3ccncc3)nc2-c2cccs2)cc1	-6.7%	2.1	4	-13%	5%	-8	?
CCOC(=O)Cc1csc(NC(=O)CSc2nnc(C)n2C)n1	-0.4%	-0.2	-8	-3%	-14%	3	19%
O=S1(=O)N=C(N=Nc2c(O)[nH]c3ccccc23)c2ccccc21	0.4%	0.4	-13	-17%	-15%	-6	17%
O=C1C(Cc2ccccc2)Nc2ncnc(N3CCN(c4ccccc4)CC3)c2N1Cc1ccc(Cl)cc1 (stereo unspecified)	-13%	.	-39	-2%	.	8	.
Cc1c(NC(=O)NC(=O)c2ccc(F)cc2)c(=O)n(-c2ccccc2)n1C	-3.7%	-0.3	-8	5%	0%	8	6%
CCOC(=O)c1c(NC(=O)CN2CCOCC2)sc2c1CCCC2=O	-3.7%	-1.0	-2	-13%	?	17	14%
COC(=O)c1ccccc1NC(=O)Oc1ccc(F)cc1	25µM*	3.0	8	19%	15%	.	21%
CCCCNCc1nc2ccccc2c(=O)[nH]1	.	-1.7	-5	5%	15%	0	?
O=C(COc1ccc(Cl)cc1Cl)NNC(=S)NCc1ccco1	-2.4%	0.8	-4	-7%	-45%[inhibitor]	6	9%
N#CC1=C(N)OC2=C(C(=O)CCC2)C1c1ccsc1 (stereo unspecified)	-2.3%	6.1	-4	6%	6%	-8	-19%
c1coc(-c2ncc[nH]2)c1	-6.0%	?	2	-4%	6%	17	-26%
CCN=C1S/C(=C\c2ccc(Sc3ccc(Cl)cc3)o2)C(=O)N1CC	-0.3%	5.8	-14	1%	-1%	-5	1%
CC1CCN(CCCOc2ccc(Cl)cc2Br)CC1	-2.3%	-4.0	-29	15%	-25%	-2	6%
COc1ccc(CCn2c(=O)[nH]c3cc(C(=O)N4CCN(c5ccccc5)CC4)ccc3c2=O)cc1OC	0.3%&1.4%	1.6	1	-8%	-2%[15.4 µM]	4	8%
Cc1c(C(=O)NC2CCCCC2)sc2ncnc(N3CCN(c4ccccc4)CC3)c12	-1.0%	-0.7	-7	8%	?	1	4%
CC(C)(C)n1nnnc1C(c1ccncc1)N1CCCCCC1 (stereo unspecified)	-0.5%	0.3	6	-2%	22%	-1	5%
COc1ccc(C)cc1-n1c(-c2ccncc2)n[nH]c1=S	0.9%	2.9	7	-4%	4%	4	-5%
Cn1cc([N+](=O)[O-])c(C(=O)NNC(=O)c2ccc([N+](=O)[O-])cc2)n1	0.0%	2.2	-6	6%	-25%	0	16%
Cc1ccc(CSc2nsc(C)c2C#N)cc1	0.1%	7.6	0	-9%	21%	-24	?
CC1CCCCC1NC(=O)CSC1=Nc2ccccc2C2CC=NN12 (stereo unspecified)	-0.1%	.	1	8%	0%	-9	.
Cc1ccc(NC(=O)C2C(c3ccccc3)C=CC(c3ccccc3)C2C(=O)O)cc1 (stereo unspecified)	-2.7%	2.0	21	-4%	-1%	-1	-23%
CCS(=O)(=O)Nc1cccc(C2=NN(S(C)(=O)=O)C(c3cccs3)C2)c1 (stereo unspecified)	1.0%	.	-2	?	?	8	10%
O=C(CC1S/C(=N/N=C/c2ccco2)NC1=O)Nc1cccc(Cl)c1Cl (stereo unspecified)	.	13	-9	7%	-6%[15.4 µM]	8	?
COc1ccc(CN2CCN(Cc3ccc(C(F)(F)F)cc3)CC2)cc1	0.1%	-2.0	-27	4%	15%	-13	-30%
Cc1nnc(-c2cnn(-c3ccccc3)c2N)n1Cc1ccc(F)cc1	-0.9%	2.6	-1	-5%	-4%	6	10%
Cn1nnnc1SCc1nc2ccccc2s1	1.5%	3.1	-5	11%	5%	14	?
CCOc1ccc(S(=O)(=O)Nc2ccccc2SC)cc1	1.6%	0.8	-9	-3%	-39%[inhibitor]	12	17%
COc1cccc(-n2nnnc2SCC(=O)Nc2nc3c(s2)CCCC3)c1	-2.6%	7.1	-14	-3%	6%	-8	12%
N#Cc1cc2c(nc1SCC(=O)O)CCCC2	-0.5%	1.9	1	-7%	2%	15	-17%
NC(=O)c1ccccc1N/C=C/C(=O)c1ccc(F)cc1	-20%	12	1	-14%	-3%	21	-24%
CN(CC(=O)Nc1cccc(F)c1)C(=O)CN1C(=O)C2CCCCC2C1=O (stereo unspecified)	-0.1%	.	-2	-2%	-62%[inhibitor]	-8	.
CCOC(=O)C(=NC1CCCCC1)NNc1cccc(C(F)(F)F)c1	-1.8%	7.5	9	0%	1%	-10	1%
COCCn1c(SCC(=O)N2CCCC2=O)nnc1-c1ccncc1	0.0%	.	-4	.	24%	.	.
Cc1cc(OCCn2ccnc2)ccc1C(C)C	1.7%	1.9	7	-10%	-9%	6	-2%
Fc1ccccc1C1CCN(Cc2nc(COc3ccccc3)no2)C1 (stereo unspecified)	0.3%	1.8	-21	3%	-15%	-13	-1%
COc1cccc(OCCn2cccc2/C=C2/C(=N)N3OC(C)=CC3=NC2=O)c1	1.3%	2.2	-2	7%	?	-10	11%
CCOC(=O)c1cnc(SCC(=O)Nc2ccc(N3CCOCC3)c(Cl)c2)nc1N	-1.5%	5.5	0	-1%	-2%	-3	11%
COc1ccc(/C=C2/CCCc3ccccc3C2=O)cc1	-3.4%	.	3	8%	-36%[inhibitor]	.	.
O=C(Nc1cccn2ncnc12)c1cccc(C(F)(F)F)c1	.	2.0	-5	2%	-57%[inhibitor]	-1	5%

Quoted at random: two compounds from above.
SMILES	ClpP mod	Menin MLL FP FL	D2 PAM	gsp antag	gsp agonist	TRPV1 potentiator	Sfp PPTase inh
CCOC(=O)C(=NC1CCCCC1)NNc1cccc(C(F)(F)F)c1	-1.8%	7.5	9	0%	1%	-10	1%
O=C(Nc1cccn2ncnc12)c1cccc(C(F)(F)F)c1	.	2.0	-5	2%	-57%[inhibitor]	-1	5%

(list continues)
SMILES	ClpP mod	Menin MLL FP FL	D2 PAM	gsp antag	gsp agonist	TRPV1 potentiator	Sfp PPTase inh
COc1ccc(-c2cnc(N)n2C)cc1	-1.9%	-0.2	-7	11%	-51%[inhibitor]	-4	2%
Cc1nn2c(c1-c1ccccc1)N=C(c1ccco1)CC2c1ccccc1 (stereo unspecified)	-3.0%	?	-2	-3%	-58%[inhibitor]	-7	16µM*
O=C(Cn1nnc(-c2ccccc2)n1)Nc1cccc(S(=O)(=O)N2CCCC2)c1	32µM*	.	-7	4%	28%	2	.
Cc1ccc(S(=O)(=O)NCC(=O)NNC(=O)c2ccccc2Cl)cc1C	.	.	-7	-8%	-15%[15.4 µM]	.	.
COc1cc(OC)cc(C(=O)NCC2CCCO2)c1 (stereo unspecified)	-4.7%	-0.2	1	-3%	-16%	6	0%
CCCN(c1ccc(C(=O)OC)cc1)S(=O)(=O)c1ccccc1	.	0.1	-3	-12%	-2%[15.4 µM]	-6	0%
O=C(O)CCc1ccc(S(=O)(=O)NCCc2ccccc2)cc1	-0.1%	-0.2	-5	-5%	-35%[inhibitor]	-7	9%
O=C1CSCN1c1ccc(Cl)c(Cl)c1	0.5%	-4.4	0	6%	-10%	-6	-5%
COc1ccc2c(CCNC(N)=S)c[nH]c2c1	-3.8%	1.2	-7	3%	5%	-1	2%
Cc1ccc(NC(=O)Cn2cc(C=O)c3ccccc32)cc1	-0.2%	0.0	-2	?	?	-9	17%
O=S(=O)(Nc1c(O)ccc2ccccc12)c1cccc2ccccc12	?	.	?	-17%	2%[15.4 µM]	.	.
CN(C)c1nc2c(c(N)nn2-c2ccc(Cl)cc2)c(=O)o1	0.1%	3.3	11	-2%	1%	-19	1%
C=CCn1nc2n(c1=O)-c1ccccc1SC2	1.0%	1.2	-12	0%	-1%	8	-7%
O=S(=O)(c1c(F)cccc1F)N(CCc1ccc(F)cc1)C[C@@H](O)COCc1ccccc1	-3.3%	.	-4	-14%	.	.	.
COc1cccc2c(Cl)c(CC=C(Cl)Cl)c(C)nc12	10µM*	?	-6	4%	-3%[15.4 µM]	5	-25%
COc1ccc(C2C(C(=O)OC3CCCCC3)=C(C)Nc3nnnn32)c(OC)c1OC (stereo unspecified)	-1.3%	-0.1	-1	-13%	2%	-9	?
Cc1cc(C)cc(NC(=O)c2ccc(CSc3nnnn3C)cc2)c1	-1.8%	0.6	7	-5%	?	-6	9%
CN1OC[C@@H]2CN[C@H](c3ccc(-c4cccc(F)c4)cc3)C[C@@H]21	1.0%	.	1	.	-29%	.	.
C=CCNC(=O)CC(=O)N/N=C/c1cccc(C)c1	.	.	-28	1%	18%[15.4 µM]	-1	8%
CS(=O)(=O)N(CC(=O)Nc1ccccc1C(=O)NCCc1ccccc1)c1ccc2c(c1)OCCO2	-21%	1.4	-20	-1%	12%	-2	11%
O=C(CCSc1ccc(Cl)c(Cl)c1)NC12CC3CC(CC(C3)C1)C2	-0.6%	-4.0	-4	?	-6%	3	8%
CCOC(=O)c1nnn(CC(=O)N2N=C(c3ccccc3)CC2c2ccccc2)c1C(=O)OCC (stereo unspecified)	-11%	0.2	11	11%	0%	-16	3%
Cc1ccc(C(=O)Nc2ccccc2N2CCCCC2)cc1S(=O)(=O)N1CCOCC1	-5.9%	.	-4	?	8%	.	.
Cc1nnc(SCC(=O)N(C)Cc2ccccc2)[nH]c1=O	-0.5%	1.3	-20	1%	0%	5	-8%
COC(=O)C1=C(NC(=O)c2ccc(C)cc2)CCS1	11%	3.3	3	-5%	39%	-4	16%
CCCN(C)C[C@H]1Oc2ncc(Br)cc2C(=O)N([C@@H](C)CO)C[C@@H]1C	1.2%	.	1	.	4%	.	.
N#Cc1ccc[n+](CC(=O)c2ccc(Cl)cc2)c1	-1.5%	0.6	-4	3%	-17%[15.4 µM]	-11	11%
Cc1ccc(NC(=O)CSc2ccccc2NC(=O)c2ccccc2)cc1Cl	-4.3%	2.8	-4	-8%	12%	-7	-11%
